Assay outcomes deposited in PubChem BioAssay by NMMLSC.
Autofluor counter: counter-screen for toxin protease inhibitors: compound fluorescence; compound autofluorescence counterscreen, microsphere flow cytometry; stronger effect = higher value; fluorescence intensity (no concentration beside the values); hit rate 3.1% among 360,000;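 active means at least 3 SD above the mean of all compounds, about 16000 in these data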;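 further: 100 nL of 1 mM stock went into each well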
Starred values were filed as active, the others as inactive. Not all compounds are listed (hit frequency here may not be typical).

molecule,Autofluor counter
Cc1cccc(C)c1-n1nnnc1C1(C)CCC(=O)N1CCCN1CCOCC1 (configuration not stated),5928
COCCNC(=O)C1(C)CCCN(C(=O)c2cc(F)ccc2C)C1 (configuration not stated),3529
CCCS(=O)(=O)NC(=O)C1(C)CCCN(C(=O)c2ccc3c(c2)OCO3)C1 (configuration not stated),2902
C1=C[C@H]2CCCN3CC[C@@H]([C@@H]2[C@]32CO2)[C@H]1CCOCc1ccccc1,5315
O=C(CCN1CCCCO1)NC1CCCc2c1cnn2-c1ccc(F)cc1F (configuration not stated),3570
C=CCOC(=O)COc1ccc2c3c(c(=O)oc2c1)CCCC3,3102
Cc1cccnc1C(NC(=O)C1CCN(Cc2ccc(Oc3ccccc3)cc2)CC1)c1ccccc1 (configuration not stated),4269
COc1ccc(CNC(=O)COC(=O)c2c(NC(C)=O)sc(C)c2C)cc1OC,3716
OC[C@@H]1CN(Cc2cccs2)C[C@H](n2cnc3c(NCc4ccc(F)cc4)ncnc32)O1,3855
CCc1nc2c(OCc3cc(Cl)cc(Cl)c3)cccn2c1N(C)C(=O)c1ccccc1F,4020
Cc1ccc2nc3n(c(=O)c2c1)-c1cc2ccccc2cc1C(=O)NC3Cc1ccc(O)cc1 (configuration not stated),3473
Cc1cccc(CN2CCC(n3nccc3NC(=O)CCCc3ccccc3)CC2)c1,3551
COc1cccc(C(=O)N2C(C(C)C)COc3cc(Br)ccc3S2(=O)=O)c1 (configuration not stated),3771
CCCCOCCCNC(=O)C[C@@H]1C[C@@]2(C(=O)OCC)CCCC=C2N(Cc2ccc3c(c2)OCO3)C1=O,4590
COc1ccccc1S(=O)(=O)N(C)C[C@H]1OCc2cn(nn2)CCCC(=O)N([C@H](C)CO)C[C@@H]1C,3797
COc1cccc(NC(=O)C2(C)CCN2C(=O)CC2CCCC2)c1 (configuration not stated),3929
O=C(c1ccco1)N1CCN(C2CN(Cc3cn(Cc4ccccc4C(F)(F)F)nn3)S(=O)(=O)C2)CC1 (configuration not stated),6490
N#Cc1ccc(Nc2nc(-c3ccccc3)c(C(=O)c3ccccc3)s2)cc1,4058
C[C@@H](c1ccccc1)N1C[C@@H](COCc2ccccc2)Oc2cc(N3CC[C@H](O)C3)ccc2S1(=O)=O,5570
OC(c1ccccc1)(c1nc(-c2ccc(F)c(Cl)c2)cs1)C(F)(F)F (configuration not stated),4207

Later entries.
molecule,Autofluor counter
C#CCN(C[C@H]1[C@H](OC(=O)Nc2c(C)noc2C)[C@H](OC(=O)Nc2c(C)noc2C)C[C@@H](C(=O)OC)[C@H]1C(=O)OC)S(=O)(=O)c1ccc(C)cc1,3234
COc1cc(NC(=O)Nc2nnc([C@@H]3C[C@H](O)[C@@H](CO)O3)s2)cc(OC)c1OC,3926
O=S(=O)(NCCS(=O)(=O)N1CCN(c2ccc(F)cc2)CC1)c1ccc(F)cc1,3578
COc1ccc(CNC(=O)/C=C/[C@H]2O[C@@H](n3cnc4c(NC(=O)c5ccccc5)ncnc43)[C@H](O)[C@@H]2O)cc1,4210
C#CCN(C[C@@H]1[C@@H](OC(=O)NCc2ccco2)[C@@H](OC(=O)NCc2ccco2)Cn2c(=O)ccc(=O)n21)S(=O)(=O)c1ccc(C)cc1,3482
Cc1noc(C)c1S(=O)(=O)N1CCCCC1c1cc(C(=O)Nc2cccc3c2CCCC3)no1 (configuration not stated),4014
Cc1ccc(Cc2c(-c3ccco3)nc3c(C)cc(Br)cn23)cc1,4729
Cc1ccsc1C(=O)N1CCC1(C)C(=O)NCc1cccc2ccccc12 (configuration not stated),2868
Cc1ccc(S(=O)(=O)N(C)C)cc1NC(=O)C(C)OC(=O)CC1CC2CCC1C2 (configuration not stated),2877
Cc1cccc(NC(=O)c2cccc(S(=O)(=O)N(C)C3CCCCC3)c2)n1,3852
CCc1nc(NCC2CC2)c2nnn(Cc3ccccc3)c2n1,3314
OCCNc1ncnc2c1ncn2[C@H]1CN(Cc2cccs2)C[C@@H](CO)O1,3654
Cc1ccc(NC(=O)C2(C)CCN2C(C)C)cc1C (configuration not stated),3831
COc1ccc(S(=O)(=O)N2CCC(C(=O)NN3CCCCC3)CC2)cc1,2970
CCc1nc2c(OCCOC)cccn2c1N(C)C(=O)c1ccco1,3764
Cc1noc(C)c1S(=O)(=O)N(C)C[C@H]1OCc2cnnn2CCCC(=O)N([C@H](C)CO)C[C@@H]1C,3779
Cc1ccc(S(=O)(=O)NC(=O)C2(C)CCN2C(=O)CCc2ccc(Cl)cc2Cl)nc1 (configuration not stated),3901
CC1=C(C(=O)N2CCOCC2)CC(CC(=O)NC(c2ccccc2)c2ccccc2)C(=O)N1Cc1ccc(C(C)(C)C)cc1 (configuration not stated),3589
CCCc1cc(NCCOCCO)n2c(nc3ccccc32)c1C#N,3017
CC(=O)Nc1ccc(NC(=O)C2(C)Cc3c(-c4cccc(NC(C)=O)c4)ccnc3O2)cc1 (configuration not stated),3884

Following part:
molecule,Autofluor counter
CCCCNC(=O)c1nc(C2CCN(S(=O)(=O)c3c(F)cccc3F)CC2)oc1-c1ccccc1,5769
OC(c1ccc(F)c(F)c1)c1nc(-c2ccc(Cl)cc2)cs1 (configuration not stated),3177
COC(=O)[C@]12CCCCC=C1N(Cc1ccco1)C(=O)[C@H](CC(=O)N1CCOCC1)C2,5653
CC1(C(=O)NS(=O)(=O)Cc2ccccc2)CCN1C(=O)Cc1ccccc1Cl (configuration not stated),4246
Cc1noc(C)c1NC(=O)N(C)C[C@@H]1Oc2cc(Br)ccc2S(=O)(=O)N([C@H](C)CO)C[C@@H]1C,3538
CCCCC1(CC(=O)OCC)SCCN1C(N)=O (configuration not stated),2823
NC(Cc1ccccc1)c1csc(Nc2ccc(C(=O)c3ccccc3)cc2)n1 (configuration not stated),3455
O=S1(=O)C[C@H](N2CCC[C@@H]2CO)[C@@H](COCc2ccccc2)N1,6147
COc1ccccc1CNc1nc(NCc2ccc(C(C)C)cc2)c2sccc2n1,2789
CSc1ccc(Cn2c(C)c(C(=O)NCc3ccc(F)cc3)sc2=O)cc1,5599
CN(C)c1ccc(NC(=S)Nc2ccc3c(c2)c(=O)n(C)n3-c2ccc(C(C)(C)C)cc2)cc1,3766
O=C([C@H]1O[C@@H](n2ccc(=O)[nH]c2=O)[C@H](O)[C@@H]1O)N1CCN(Cc2ccccn2)CC1,5090
CCOC(=O)[C@]12CCC=C1N(Cc1ccccc1)C(=O)[C@H](CC(=O)NCCc1ccccc1OC)C2,6237
CN1C(=O)[C@H]2[C@@H](c3ccc(C(F)(F)F)cc3)N[C@]3(CCCN(Cc4ccc(F)cc4)C3=O)[C@H]2C1=O,4142
COc1cc(C=C2CN(C)C(=O)C2=O)ccc1O,3745
Cc1cc(Br)cn2c(Cc3ccsc3)c(C(C)(C)C)nc12,5647
CCCCN(C(=O)c1cccc(-n2cnnn2)c1)c1c(N)n(CCCC)c(=O)[nH]c1=O,3998
COc1ccccc1C(NC(=O)C1CCN(CCOc2ccc(Cl)cc2Cl)CC1)c1ccccn1 (configuration not stated),3554
CSc1ccccc1NC(=O)CN(C)C(=O)CNC(=O)c1ccc(Oc2ccccc2)cc1,3682
CCCCCCN1C[C@H](O)[C@@H](n2cc(COC(=O)c3ccccc3)nn2)C[C@@H]1c1ccccc1,3384

Additional entries:
molecule,Autofluor counter
Cc1ccc(F)c(S(=O)(=O)NC(=O)C2(C)CCN2C(=O)CC(c2ccccc2)c2ccccc2)c1 (configuration not stated),3514
Cc1ccc(S(=O)(=O)N(C)C[C@H]2OCc3cn(nn3)CCCC(=O)N([C@H](C)CO)C[C@@H]2C)cc1,3711
O=C(Nc1ccccc1Cl)c1cc(C2CCCCN2S(=O)(=O)c2ccccc2)on1 (configuration not stated),3405
COCc1cc(=O)n2[nH]c(C)c(-c3ccc(Cl)cc3)c2n1,3643
CC(=O)c1ccc(Nc2nc(C(C)N)cs2)cc1 (configuration not stated),3692
COc1cc(CCN=Cc2ccccc2O)c([N+](=O)[O-])cc1OC,6166
CCCc1c(C(=O)N/N=C/c2ccc(OCc3ccc(F)cc3)cc2)nnn1-c1nonc1N,3498
COc1ccccc1-c1csc(C(NC(C)=O)c2cccc(F)c2)n1 (configuration not stated),3640
C[C@@H]1CN([C@@H](C)CO)C(=O)CCCn2nncc2CO[C@H]1CN(C)C(=O)C1CCCCC1,3533
COc1cc(F)ccc1-c1csc(C(NC(C)=O)c2cccc(F)c2)n1 (configuration not stated),3917
Cc1ccccc1C(=O)OCC(=O)N1CC(=O)Nc2ccccc21,3586
CC[C@H](C)[C@@H](CO)NC(=O)[C@H]1O[C@@H](n2ccc(=O)[nH]c2=O)[C@H](O)[C@@H]1O,5133
CCCCNC(=O)C[C@@H]1C[C@@]2(C(=O)OCC)CCCC=C2N(Cc2ccc(Cl)cc2Cl)C1=O,6980
C[C@@H]1CN([C@@H](C)CO)C(=O)CCCn2cc(nn2)CO[C@H]1CN(C)C(=O)Oc1cccc2ccccc12,4294
C[C@H](CO)N1C[C@H](C)[C@H](CN(C)S(=O)(=O)c2ccccc2)OCc2ccccc2-c2c(n(C)c3ccccc23)C1=O,3479
CCOc1ccc(S(=O)(=O)N2CCCCC2)cc1NC(=O)Cc1cc(OC)c(OC)c(OC)c1,3599
COc1ccc(CN(C)C[C@@H]2OCCCC[C@H](C)Oc3ccc(NC(=O)Nc4ccc(F)cc4)cc3C(=O)N([C@H](C)CO)C[C@H]2C)cc1,4026
CC(=O)N1CCN(c2cc(-c3ccccc3)nc3cc(-c4cccc(Cl)c4)nn23)CC1,4240
COc1ccc(-n2nnnc2C(CCSC)N2CCN(C/C=C/c3ccccc3)CC2)cc1 (configuration not stated),6110
CCOc1ccc(Cl)cc1-c1cc(C(=O)NCCc2ccncc2)[nH]n1,3109

(further entries)
molecule,Autofluor counter
CC1(C)CC(N2CCOCC2)=CC(=S)N1,5231
C[C@H]1CN([C@@H](C)CO)C(=O)CCCn2cc(nn2)CO[C@@H]1CN(C)C(=O)Nc1cccc(F)c1,3707
CC1(C(=O)Nc2ccc3c(c2)OCCO3)CCC(=O)N1C1CCN(Cc2ccccc2)CC1 (configuration not stated),6099
CC1=C(C(=O)N(C)C)CC(CC(=O)NC2CC2)C(=O)N1CCC1=CCCCC1 (configuration not stated),3280
C=CCNc1ncnc2c1ncn2[C@H]1CN(CCN2CCOCC2)C[C@@H](CO)O1,4011
Cn1c(=O)c2cc(NC(=O)NCCc3ccccc3)ccc2n1Cc1cccc(C(F)(F)F)c1,3393
CCC(Sc1nc2ccsc2c(=O)n1Cc1ccc(C(=O)O)cc1)C(=O)Nc1ccc(Cl)cc1 (configuration not stated),3927
COc1ccc(NC(=O)C2Cc3c(-c4ccccc4Oc4ccccc4)ccnc3O2)cn1 (configuration not stated),2781
CCCCN(CCCNC(=O)c1ccc2c(c1)NC(=O)CN2C)c1ccccc1,3642
O=C(CCNS(=O)(=O)c1ccc(F)cc1)N1CCN(c2ncccn2)CC1,3660
COc1cc(/C=C/CNC[C@H]2O[C@@H](n3cnc4c(N)ncnc43)[C@H](O)[C@@H]2O)ccc1O,4406
CC1(c2nnnn2Cc2ccccc2)CCC(=O)N1CCc1ccc(O)cc1 (configuration not stated),4460
CC(C)(C)c1ccc(S(=O)(=O)NC(=O)C2(C)CCN2C(=O)Cc2cc(F)ccc2F)cc1 (configuration not stated),3828
Cc1cc(C(=O)COc2ccc(Br)cc2F)c(C)n1CC1CCCO1 (configuration not stated),4058
CC1(C(=O)NS(=O)(=O)Cc2ccccc2C(F)(F)F)CCN1C(=O)C/C=C/c1ccccc1 (configuration not stated),3400
O=C(CN1CCCC1)Nc1nc(-c2ccc(Cl)cc2)cs1,4320
CN1CCOc2c1cnn(CCO)c2=O,5632
COC(=O)N(C)C[C@@H]1OCc2cnnn2CCCC(=O)N([C@H](C)CO)C[C@@H]1C,3510
Cc1ccc(S(=O)(=O)NCCCCCCNS(=O)(=O)c2ccc(C)cc2)cc1,3750
Cc1ccc(S(=O)c2ccc([N+](=O)[O-])c3nonc23)cc1 (configuration not stated),2848

Next section; the last 2 above are carried over.
molecule,Autofluor counter
Cc1ccc(S(=O)(=O)NCCCCCCNS(=O)(=O)c2ccc(C)cc2)cc1,3750
Cc1ccc(S(=O)c2ccc([N+](=O)[O-])c3nonc23)cc1 (configuration not stated),2848
CC1(C(=O)NS(=O)(=O)c2cccc(Cl)c2)CCN1C(=O)c1cccc(F)c1 (configuration not stated),2922
CC(=O)Nc1ccc(/C=N/NC(=O)CC2CCCCC2)cc1,3458
CSc1ccc(CN2CCC(C)(Oc3ccc(-n4ccnc4)cc3)C2)cc1 (configuration not stated),3527
C[C@H](CO)N1C[C@H](C)[C@H](CN(C)C(=O)Nc2cccc3ccccc23)OCc2cnnn2CCCC1=O,2874
COCCCN1C(=O)C(CC(=O)NC2CCCCC2)CC(C(=O)N2CCCCCC2)=C1C (configuration not stated),5790
CCCNC(=O)c1cc(C2CCCN(C(=O)c3ccccc3)C2)on1 (configuration not stated),3950
CCCCn1nnnc1C1(C)CCC(=O)N1Cc1ccc(OC)c(OC)c1 (configuration not stated),5288

Ordered by count of non-hydrogen atoms (falling): some entries from above.
molecule,Autofluor counter
C[C@H](CO)N1C[C@H](C)[C@H](CN(C)C(=O)Nc2cccc3ccccc23)OCc2cnnn2CCCC1=O,2874
COCCCN1C(=O)C(CC(=O)NC2CCCCC2)CC(C(=O)N2CCCCCC2)=C1C (configuration not stated),5790
CCCCn1nnnc1C1(C)CCC(=O)N1Cc1ccc(OC)c(OC)c1 (configuration not stated),5288
CCCNC(=O)c1cc(C2CCCN(C(=O)c3ccccc3)C2)on1 (configuration not stated),3950
CC(=O)Nc1ccc(/C=N/NC(=O)CC2CCCCC2)cc1,3458
